Beta cell apopt: beta cell apoptosis inhibition. 300,000 tested, 0.8% active. AID 435005. INS-1E cytokine-induced death, ATP luminescence, 48 h; percent of positive-control rescue, neutral wells zero. protection from apoptosis, % (concentration not given with the values);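 active = all replicates at 75% or more, or half of them and the mean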;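 note: 0% = cytokine-treated negative control wells and 100% = positive control rescue; higher means more ATP so stronger rescue from cytokine killing; wells of about 40 µL received 100 nL stock; the first replicate is given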
FGF22 binding: shifts melting point of recombinant human FGF22 | Q9HCT0 | recombinant FGF22 thermal shift, SYPRO orange fluorescence; percent of sucrose octasulfate shift, DMSO zero | calls only at 9.99 µM | 340,000 tested, 1.5% active;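 active = melting point raised past a set limit in the mean and every replicate; three in four hits are not shown here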
Target sequence (Q9HCT0 whole entry, looked up): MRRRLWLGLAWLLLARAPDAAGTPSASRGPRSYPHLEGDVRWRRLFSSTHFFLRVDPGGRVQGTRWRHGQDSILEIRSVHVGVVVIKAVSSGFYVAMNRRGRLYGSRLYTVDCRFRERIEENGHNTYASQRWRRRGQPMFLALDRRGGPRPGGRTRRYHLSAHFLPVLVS
UCH37 DUB inh: inhibitors of human deubiquitinating enzyme UCH37. 330,000 tested, 0.33% active. inhibition, % (concentration not given with the values). purified proteasome/UCH37, Ub-AMC cleavage fluorescence. Q9Y5K5;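 active = mean of two replicates above 20%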;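 note: 0% = compound-free wells with enzyme and 100% = wells lacking proteasome; stock transfer was 100 nL into about 20 µL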
Target sequence (Q9Y5K5 whole entry, looked up): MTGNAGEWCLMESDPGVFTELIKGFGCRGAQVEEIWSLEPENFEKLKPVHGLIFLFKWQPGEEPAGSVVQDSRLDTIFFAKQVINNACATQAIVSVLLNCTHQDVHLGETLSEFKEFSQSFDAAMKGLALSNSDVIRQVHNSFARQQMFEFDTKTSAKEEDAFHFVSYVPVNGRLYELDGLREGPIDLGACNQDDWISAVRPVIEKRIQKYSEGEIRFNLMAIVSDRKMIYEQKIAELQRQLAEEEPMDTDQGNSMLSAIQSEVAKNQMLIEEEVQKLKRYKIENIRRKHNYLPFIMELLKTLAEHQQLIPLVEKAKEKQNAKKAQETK
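Material: Human UCH37 enzyme supplied as purified proteasome complex | Schedule: 30 min compound-proteasome preincubation then 25 min substrate reaction, room temperature | Detection: AMC fluorescence from Ub-AMC cleavage, excitation 355 nm, emission 460 nm | Benchmarks: Wells without proteasome as full block, compound-free enzyme plus substrate as uninhibited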
A1 inh: inhibitors of the anti-apoptotic protein A1, read as caspase activation; MEF A1-2A-BIM cells, Caspase-Glo 3/7 luminescence, 3 h; percent of clofoctol response, vehicle zero; caspase activation, % (concentration not given with the values); 330,000 tested, 0.066% active; AID 2462;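 active = over half of replicate activation scores above 10%, or exactly half above 10 with the replicate mean above 10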;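 note: wells of about 30 µL received 50 nL stock; many hits fall short of the cut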
rRNA inh HTS: inhibits bacterial ribosomal RNA function over humanized ribosomes | E. coli WT GFP vs humanized-ribosome RFP mutants, fluorescence, 24 h; stronger effect = lower value; DMSO median 0, no signal -100 | GFP signal change (wild-type ribosome), % (no concentration beside the values) | 350,000 tested, 1.6% active | AID 720706;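 active = significant combined selectivity score with lowered wild-type GFP, culture density cut under 30%, mutant RFP and density less affected; inactive = any of these conditions unmet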; note: one replicate is shown; some compounds called inactive have numbers as strong as hits
Ecoli growth: E. coli growth inhibition | Escherichia coli growth, OD600, 23 h; stronger effect = lower value | OD600 absorbance (no concentration beside the values) | 330,000 tested, 0.21% active | AID 1053175;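 active = OD600 absorbance below the run mean of sample wells minus 3.6 SD, in any replicate, cut at about 0.56 in these data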;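 note: stock transfer was 300 nL into about 60 µL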
AF4-AF9 inh: blocks AF4 peptide binding to human AF9; AlphaScreen, biotin-AF4 peptide binding to FLAG-AF9; inhibition, % at 10 µM; 350,000 tested, 0.47% active;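 active = every replicate reaching a set inhibition limit, whatever the replicate mean, cut at about 25% in these data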;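 note: 0% = plate neutral control median and 100% = total signal loss; the record names both 10 and 1 µM as test concentration; the first replicate is given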
Target sequence (P42568 whole entry, looked up): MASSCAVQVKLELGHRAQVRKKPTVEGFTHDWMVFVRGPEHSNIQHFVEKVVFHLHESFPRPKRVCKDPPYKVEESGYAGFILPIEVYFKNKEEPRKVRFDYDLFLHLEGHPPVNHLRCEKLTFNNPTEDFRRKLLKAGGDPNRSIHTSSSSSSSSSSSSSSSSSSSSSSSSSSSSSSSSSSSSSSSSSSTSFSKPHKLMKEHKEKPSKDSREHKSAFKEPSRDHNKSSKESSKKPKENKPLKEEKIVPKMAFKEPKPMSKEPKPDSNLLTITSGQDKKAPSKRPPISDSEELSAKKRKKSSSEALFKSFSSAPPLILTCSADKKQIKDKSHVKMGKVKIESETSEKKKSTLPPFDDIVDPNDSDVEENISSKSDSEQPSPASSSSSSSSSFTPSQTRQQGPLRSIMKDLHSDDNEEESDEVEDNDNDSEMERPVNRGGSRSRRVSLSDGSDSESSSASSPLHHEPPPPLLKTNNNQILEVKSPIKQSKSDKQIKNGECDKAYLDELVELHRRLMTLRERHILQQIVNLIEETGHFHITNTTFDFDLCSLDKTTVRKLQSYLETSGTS
T cruzi inh: blocks replication of Trypanosoma cruzi | AID 1885 | T. cruzi beta-gal in NIH3T3, luminescence, 90 h | 300,000 tested, 1.4% active | inhibition, % (no concentration beside the values);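 active = mean inhibition across valid replicates above about 55%, limit read from the data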;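 note: signal also drops with host cell toxicity which is not excluded here; 0% = plate median of DMSO wells and 100% = zero luminescence signal; higher percent means less beta-gal luminescence so fewer parasites; stock transfer was 50 nL into about 50 µL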
rRNA inh HTS OD600: recorded beside rRNA inh HTS, whose call it bears; OD600 change, %; measured here: OD600 growth;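 optical density of the mix in the first replicate; 0 = DMSO median and -100 = no signal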
rRNA inh HTS RFP: further read-out of rRNA inh HTS, marked with its call; RFP signal change, %; measured here: RFP humanized mutant strains;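 first replicate; 0 = DMSO median and -100 = no signal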
Starred values were filed as active, the others as inactive; i = inactive; · = no result given.

SMILES | Beta cell apopt | FGF22 binding | UCH37 DUB inh | A1 inh | rRNA inh HTS | rRNA inh HTS OD600 | rRNA inh HTS RFP | Ecoli growth | AF4-AF9 inh | T cruzi inh
O=C(CNC(=O)c1cccs1)N/N=C/c1ccccc1[N+](=O)[O-] | 0 | i | · | -0.6 | -2 | 0 | -0.2 | · | 1.9 | 2
COc1cccc(/C=C/C(=O)OCC(=O)NCCC2=CCCCC2)c1OC | 2 | i | -13 | 0.9 | 13 | 15 | 1.3 | 0.68 | -2.0 | ·
COc1ccc(C(=O)Nc2ccc(S(=O)(=O)N3CCCCC3)cc2)cc1OC | 3 | · | 4.6 | 1.2 | · | · | · | 0.75 | · | 11
CCN(C(=O)COC(=O)C1CCN(S(=O)(=O)c2ccc(C)c(C)c2)CC1)C1CCS(=O)(=O)C1 (centres undefined) | -8 | i | 2.4 | 0.5 | 6 | 13 | -3.0 | 0.69 | -0.9 | -2
Cn1nc(C(=O)O)c(=O)n(C)c1=O | · | i | 1.2 | · | 3 | 14 | -8.1 | 0.68 | -2.9 | ·
CCCS(=O)(=O)N1CCc2ccc(NC(=O)C3CCCO3)cc2C1 (centres undefined) | -10 | i | -0.7 | 0.1 | 10 | 5 | 0.7 | 0.75 | -0.6 | 7
CC(=O)NCC(=O)OCC(=O)c1ccc(Cl)cc1 | 0 | i | 0.4 | 0.4 | 2 | 9 | 0.0 | 0.72 | -3.1 | -11
COc1ccc(CCC(=O)Nc2cccc(S(=O)(=O)N(C)C)c2)cc1OC | -11 | i | 0.9 | 1.3 | -4 | -2 | -4.5 | 0.69 | 4.2 | -13
O=C(CCCC(=O)OCC(Cl)=C(Cl)Cl)Nc1cccc2ccccc12 | 0 | i | 2.5 | 1.4 | -10 | -10 | -3.9 | 0.65 | -2.2 | 0
CCN(CC)CCCNC(=O)c1cc2c(Cl)nc3ccccc3c2s1 | 14 | · | 2.9 | 0.1 | · | · | · | 0.66 | · | 50
COc1ccc(NC(=O)Nc2nnc(Cc3ccc(OC)c(OC)c3)s2)cc1 | -10 | i | 1.5 | 1.3 | -1 | 3 | -5.7 | 0.7 | -30 | -9
Cc1ccc2nc(-c3ccc(NC(=O)CN4CCN(c5ccccn5)CC4)cc3)sc2c1 | 6 | i | -94 | -0.4 | 4 | 7 | 2.0 | 0.67 | 1.2 | -2
O=c1cc(C(F)(F)F)nc(SC/C=C/c2ccccc2)[nH]1 | -11 | · | 4.2 | -1.5 | · | · | · | 0.67 | · | -15
CN(C)/C=C1\C(=O)N(C)N=C1C(F)(F)F | -1 | i | 5.8 | -0.3 | 22 | 11 | 5.7 | 0.71 | -1.6 | 1
Cc1nn(-c2ccccc2)c(N2CCCC2)c1/C=C1\N=C(c2ccccc2)OC1=O | 3 | i | 3.2 | -0.4 | 14 | 16 | 5.0 | 0.74 | 5.5 | -26
COc1cc(C2NC(=O)NC3=C2C(=O)OC3)cc(OC)c1OC (centres undefined) | 4 | i | 3.2 | 0.1 | 7 | -2 | -7.4 | 0.68 | -28 | 5
COc1ccc2cc(S(=O)(=O)c3ccccc3)c(=O)oc2c1 | -13 | i | i | -0.2 | -1 | -4 | 3.1 | 0.63 | -4.0 | -25
Cc1ccccc1-n1c(SCC(=O)N/N=C/c2ccccc2OCC(=O)O)nc2ccccc2c1=O | -3 | i | · | -0.6 | 7 | -5 | -1.4 | · | -4.2 | -3
COc1ccc(C(=O)COc2ccc(F)cc2)c(O)c1 | -7 | i | 4.7 | -2.0 | -21* | -14* | -3.9* | 0.71 | -1.3 | -6
O=C1CC(NCCc2ccccc2)C(=O)N1CCc1ccccc1 (centres undefined) | -7 | i | -3.0 | 0.8 | -9 | -7 | 3.3 | 0.7 | -0.8 | -5

Three of the compounds above, as tab-separated lines.
canonical_smiles	Beta cell apopt	FGF22 binding	UCH37 DUB inh	A1 inh	rRNA inh HTS	rRNA inh HTS OD600	rRNA inh HTS RFP	Ecoli growth	AF4-AF9 inh	T cruzi inh
COc1cc(C2NC(=O)NC3=C2C(=O)OC3)cc(OC)c1OC (centres undefined)	4	i	3.2	0.1	7	-2	-7.4	0.68	-28	5
COc1ccc2cc(S(=O)(=O)c3ccccc3)c(=O)oc2c1	-13	i	i	-0.2	-1	-4	3.1	0.63	-4.0	-25
Cc1ccccc1-n1c(SCC(=O)N/N=C/c2ccccc2OCC(=O)O)nc2ccccc2c1=O	-3	i	·	-0.6	7	-5	-1.4	·	-4.2	-3

Remaining list, next part:
SMILES | Beta cell apopt | FGF22 binding | UCH37 DUB inh | A1 inh | rRNA inh HTS | rRNA inh HTS OD600 | rRNA inh HTS RFP | Ecoli growth | AF4-AF9 inh | T cruzi inh
Oc1ccc(-c2cn3ccccc3n2)cc1O | 1 | i | -0.5 | -5.5 | 12 | 3 | -3.1 | 0.6 | 3.5 | -29
O=Cc1sc(Nc2ccccc2)nc1Cl | 4 | i | -4.2 | 0.1 | 16 | 12 | 2.4 | 0.64 | 2.7 | -2
COC(=O)CSc1[nH]c2cc(C)ccc2c1[N+](=O)[O-] | -1 | i | 6.1 | -0.7 | 23 | 23 | -0.4 | 0.72 | -0.8 | -11
CSc1cccc(NC(=O)C2CCCN(S(=O)(=O)c3ccc(F)cc3)C2)c1 (centres undefined) | -5 | · | 3.0 | 0.1 | · | · | · | 0.69 | · | 0
O=C(O)COc1ccc2c3c(c(=O)oc2c1)CCCC3 | -6 | i | -62 | 1.8 | 5 | 1 | 0.3 | 0.67 | -0.6 | -4
CCC1(c2ccccc2)NC(=O)N(CC(=O)Nc2ccc(S(=O)(=O)N3CC(C)CC(C)C3)cc2)C1=O (centres undefined) | -4 | i | 1.4 | 0.0 | -4 | -5 | 2.9 | 0.68 | 0.6 | 9
Cn1c(N)c(C(=O)COC(=O)/C=C/c2ccc(S(=O)(=O)N3CCOCC3)cc2)c(=O)n(C)c1=O | -7 | i | -2.9 | -0.6 | 14 | 5 | 0.2 | 0.73 | -1.3 | 1
CCCc1cc(C(=O)Nc2ccc(C(=O)OC)cc2)cs1 | -13 | i | 2.7 | 0.0 | 2 | 13 | 1.6 | 0.7 | -0.1 | 0
CCOC(=O)CSc1nc(C)cc2c1C(=O)OC2 | -5 | i | 1.5 | 0.7 | 0 | 2 | -0.1 | 0.68 | -3.1 | -18
CCCCN(C)CCCNC(=O)CN1C(=O)COc2ccc(S(=O)(=O)N3CCOCC3)cc21 | · | i | -0.6 | · | 8 | 18 | 0.9 | 0.72 | -4.9 | -4
Cc1cc(C)n2nc(Nc3ccccc3)cc2n1 | -6 | · | -11 | -0.1 | · | · | · | 0.64 | · | 1
N#Cc1c(NC(=O)CSCC(=O)O)sc2c1CCCC2 | 0 | · | 3.9 | -0.3 | · | · | · | 0.67 | · | 10
O=C(CSc1nnc(COc2ccccc2)o1)NCCc1ccccc1 | 1 | · | 0.4 | -0.2 | · | · | · | 0.75 | · | 16
O=C(CSc1nc(=O)n2ccccc2n1)NCc1ccc(F)cc1 | · | i | -2.5 | 0.5 | 8 | 11 | -0.3 | 0.67 | -11 | -11
CC1(C)C(=O)OC(c2cccc([N+](=O)[O-])c2)C2(CCCCC2)C1=O (centres undefined) | -12 | · | -0.3 | 1.1 | 7 | 5 | 0.5 | 0.71 | -1.8 | -12
Cc1ccc(S(=O)(=O)N2CCCC(c3nc4c(nnn4Cc4ccc5c(c4)OCCO5)c(=O)[nH]3)C2)cc1 (centres undefined) | 4 | i | 6.4 | -0.7 | -5 | -3 | 5.0 | 0.72 | -5.6 | 10
Cc1ccc(N2NC(=O)/C(=C/c3ccc(-c4ccc(Cl)c(C(=O)O)c4)o3)C2=O)cc1C | · | i | 8.4 | 0.4 | 9 | 10 | 1.1 | 0.75 | 6.5 | -9
O=C(NCCCN1CCOCC1)c1sc2cc(Cl)ccc2c1Cl | 8 | i | 5.1 | -0.4 | 5 | -2 | 1.4 | 0.69 | -0.4 | 46
CCOC(=O)c1[nH]nc2c1C(=O)N(CC)C2=O | -1 | · | 3.3 | 0.2 | · | · | · | 0.69 | · | -4
CCOC(=O)c1[nH]c(C)c(C(=O)OCc2ccccc2F)c1C | · | · | 2.3 | -0.8 | 2 | 13 | 3.0 | 0.65 | 3.0 | 11
Cc1ccc(S(=O)(=O)N2CCN(C(=O)C(C)Cn3nc(C)c(C)c3C)CC2)cc1 (centres undefined) | 2 | i | 1.1 | 0.1 | 2 | -4 | -2.3 | 0.66 | -1.5 | 1
O=C(Nc1ccnc(-c2ccncc2)n1)c1cccs1 | 3 | i | -0.6 | -0.1 | 9 | 10 | 0.8 | 0.68 | -2.9 | 34
N#Cc1ccc(NC(=O)COC(=O)C2Cc3ccccc3CN2C(=O)c2ccccc2)cc1 (centres undefined) | -5 | · | -0.1 | 1.1 | · | · | · | 0.65 | · | -2
O=C(CN1CCC(n2nnc3cc(F)ccc32)CC1)Nc1ccc2c(c1)CCC2 | 3 | · | 1.6 | 0.8 | · | · | · | 0.67 | · | ·
COC(=O)c1cc2cc(NS(=O)(=O)c3ccc(C)cc3)ccc2s1 | -7 | · | 2.5 | -0.4 | · | · | · | 0.75 | · | 9
O=C(NCCN1C(=O)C2C3C=CC(C3)C2C1=O)Nc1ccccn1 (centres undefined) | -4 | i | 2.1 | 0.2 | 10 | 7 | 2.5 | 0.69 | 2.4 | -8
COc1ccc(CCNC(=O)C(C)Sc2ccc(C)cc2)cc1OC (centres undefined) | -3 | · | 3.9 | -0.5 | · | · | · | 0.64 | · | 12
CC(C)(C)NCCOc1ccc(Br)cc1 | -3 | · | -0.5 | 0.9 | 3 | 9 | -3.7 | 0.73 | · | 11
O=C1CN(C(=O)COC(=O)c2ccc(Cl)c(S(=O)(=O)N3CCCCC3)c2)c2ccccc2N1 | 3 | i | 2.3 | -0.2 | -19 | -44 | -6.7 | 0.67 | -3.3 | ·
CCn1ccc2c(OCC(=O)NCCc3ccc(OC)c(OC)c3)cccc2c1=O | -9 | i | 4.4 | 0.7 | 0 | -4 | -0.5 | 0.66 | -11 | -1
Brc1ccc(N/N=C(/N=Nc2nn[nH]n2)c2ccccc2)cc1 | 96* | i | · | 0.3 | -56 | -78 | -33 | · | 41* | -28
CCOc1ccccc1NC(=O)CSc1nc2cccnc2n1C | -5 | · | 7.7 | 1.8 | · | · | · | 0.73 | · | -10
O=C(Nc1cc(Br)ccc1O)c1cc(-c2cccs2)on1 | -4 | i | 1.5 | -0.3 | 2 | 12 | -2.8 | 0.72 | -1.8 | -1
CCC(=O)NC(=S)Nc1ccc(NC(=O)c2ccc(C)c([N+](=O)[O-])c2)cc1 | -6 | i | · | 0.5 | 9 | 11 | -1.3 | · | -1.2 | -2
Cc1ccc(-c2ccc(=O)n(CCC(=O)N3CCN(Cc4ccccc4)CC3)n2)cc1 | 1 | i | -1.1 | 0.3 | -3 | -5 | 1.1 | 0.65 | -0.3 | 12
Clc1ccc2scc(CN3CCCC3)c2c1 | -12 | i | 0.2 | -0.5 | 6 | 3 | 2.3 | 0.63 | -1.6 | 20
CN(C)c1ccc(N2C(=O)CC(Sc3ccccc3C(=O)O)C2=O)cc1 (centres undefined) | -7 | i | 1.3 | -0.2 | -2 | 4 | 3.3 | 0.68 | -11 | 9

Screens as filed in PubChem.

An excerpt; count on the stated rates, not on these rows.
